ALR inh = inhibitors of human sulfhydryl oxidase ALR; inhibition, % (concentration not given with the values); AID 485317; 290,000 tested, 3.8% active; purified ALR, DTT oxidation, H2O2 HRP-luminol luminescence;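 active = mean and each replicate at 75% or more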;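 also: stock transfer was 7.5 nL into about 7.5 µL; 0% = neutral wells and 100% = wells with inactivated enzyme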
Target sequence (P55789 whole entry, looked up): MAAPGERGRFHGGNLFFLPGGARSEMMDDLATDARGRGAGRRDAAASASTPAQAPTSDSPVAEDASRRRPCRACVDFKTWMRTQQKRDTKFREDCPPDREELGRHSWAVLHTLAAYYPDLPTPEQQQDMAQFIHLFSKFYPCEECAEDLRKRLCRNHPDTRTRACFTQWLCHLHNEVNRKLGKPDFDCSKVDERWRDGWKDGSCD
UCH37 inh = human UCH37 deubiquitinating enzyme inhibition | AID 588478 | purified proteasome/UCH37, Ub-AMC cleavage fluorescence | 330,000 tested, 0.33% active | inhibition, % (test concentration not listed) | Q9Y5K5;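 active = mean of two replicates above 20%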;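 also: 0% = compound-free wells with enzyme and 100% = wells lacking proteasome; stock transfer was 100 nL into about 20 µL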
Target sequence (Q9Y5K5 whole entry, looked up): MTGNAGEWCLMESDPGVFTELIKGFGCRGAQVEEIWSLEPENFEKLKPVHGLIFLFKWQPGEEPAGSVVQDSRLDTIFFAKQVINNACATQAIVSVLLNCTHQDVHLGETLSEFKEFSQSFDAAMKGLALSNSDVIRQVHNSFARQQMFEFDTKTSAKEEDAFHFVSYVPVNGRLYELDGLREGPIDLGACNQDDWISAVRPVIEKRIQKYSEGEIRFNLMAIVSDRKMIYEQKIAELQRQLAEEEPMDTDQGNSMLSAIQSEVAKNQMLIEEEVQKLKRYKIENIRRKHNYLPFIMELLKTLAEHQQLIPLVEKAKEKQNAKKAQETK
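Material: Human UCH37 enzyme supplied as purified proteasome complex | Schedule: 30 min preincubation with enzyme, 25 min cleavage at room temperature | Detection: AMC fluorescence 355/460 nm | Measure: % inhibition of Ub-AMC cleavage fluorescence | Controls: Wells without proteasome as full block, compound-free enzyme plus substrate as uninhibited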
Ecoli growth = E. coli growth inhibition. Escherichia coli growth, OD600, 23 h; stronger effect = lower value. OD600 absorbance (concentration not given with the values). 330,000 tested, 0.21% active;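 active = OD600 absorbance below the run mean of sample wells minus 3.6 SD, in any replicate, cut at about 0.56 in these data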;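 also: stock transfer was 300 nL into about 60 µL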
B2AR ag = agonists of human beta-2 adrenergic receptor inducing internalization. P07550. Am2.2-beta2AR cells, FAP receptor internalization, flow cytometry; reference of the scale not given here. response, % (no concentration beside the values). 340,000 tested, 0.43% active;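 active = response above a set limit, near 3 SD of response in nonfluorescent compounds, cut at about 42% in these data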;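 also: stock transfer was 100 nL into about 11 µL; a reference agonist was the positive control; negative values mostly stem from fluorescent compounds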
HNF4A DNA FP = change in binding of human HNF4 alpha to DNA; P41235; HNF4a-FITC DNA binding, fluorescence polarization, 1 h; activity change, % at 10 µM; 360,000 tested, 0.3% active; AID 1224865; in the data active = activity change above about 30%, passing the limit was not always enough;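 also: controls were the assay level and a saturating level of protein; the project sought stronger binding though the title names inhibitors; some compounds called inactive have numbers as strong as hits; positive values seem to mean higher polarization but the record does not say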
FGF22 binding = FGF22 (human) thermal shift binding. recombinant FGF22 thermal shift, SYPRO orange fluorescence; percent of sucrose octasulfate shift, DMSO zero. calls only at 9.99 µM. 340,000 tested, 1.5% active;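 active = melting point raised past a set limit in the mean and every replicate; three in four hits are not shown here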
Target sequence (Q9HCT0 whole entry, looked up): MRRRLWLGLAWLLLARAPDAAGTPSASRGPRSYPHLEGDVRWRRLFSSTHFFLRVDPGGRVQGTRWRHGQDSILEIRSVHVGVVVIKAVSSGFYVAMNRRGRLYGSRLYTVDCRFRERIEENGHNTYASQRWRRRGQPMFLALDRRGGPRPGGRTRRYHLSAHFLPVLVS
LANA-H2A inh = blocks KSHV LANA binding to histone H2A/H2B; inhibition, % (test concentration not listed); Q9QR71; 320,000 tested, 0.6% active; cell-free LANA-H2A/H2B peptide, fluorescence polarization; in the data active = inhibition mostly above about 10%, no sharp cut-off; inactive = mostly below about 6.7%;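 also: stock transfer was 7.5 nL into about 10 µL; 0% = median of vehicle wells and 100% = median of positive control wells; one replicate is shown; the record names a cut of 25% in any replicate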
* marks the source's active call; other numbers are inactive results; i = inactive; . = not tested or not shown. These rows are one share of the data; rates above refer to the full screens.

mol	ALR inh	UCH37 inh	Ecoli growth	B2AR ag	HNF4A DNA FP	FGF22 binding	LANA-H2A inh
CC(=O)c1c(C)[nH]c(C(=O)N2CCCC(C)C2)c1C (centres undefined)	-3.1	4.4	0.682	3.2	-1.2	i	2.6
CC(C)(C)C(=O)NC(=S)NNC(=O)c1ccc(-c2ccccc2)cc1	40.3	-10.8	0.681	15.0	2.7	.	-0.8
NS(=O)(=O)c1ccc(CCNC(=O)COC(=O)CN2C(=O)C3CCCCC3C2=O)cc1 (centres undefined)	-3.8	0.2	0.69	-1.4	1.4	i	3.7
CCC1/C(=N\O)CC(c2ccco2)NC1c1ccco1 (centres undefined)	7.2	.	.	-5.0	0.9	.	-5.3
CN(C(=O)c1ccc(NC(=O)Cc2cccc(NC(=O)C3CCCN(C(=O)C4CCCC4)C3)c2)cc1)C1CCCC1 (centres undefined)	1.0	-1.3	0.725	-2.5	2.4	i	-3.1
CNS(=O)(=O)c1ccc(NC(=O)C2CC(=O)N(c3ccc(Cl)cc3)C2)cc1 (centres undefined)	0.9	0.0	0.671	-0.9	-0.8	i	-3.7
Cn1c(=O)n(C)c2cc(N3CCCCC3)c(NC(=O)c3cccc(Cl)c3)cc21	2.2	4.4	0.669	19.4	7.7	i	3.8
COc1ccc(OC)c(N(CC(=O)N2CCCC2)S(=O)(=O)c2ccc(C)cc2)c1	1.9	3.1	0.678	2.3	2.6	i	-3.6
N/C(=N\OC(=O)CCCN1C(=O)c2ccccc2C1=O)c1ccc(Cl)cc1	.	3.5	0.702	-5.8	0.1	.	-1.6
Cc1ccc(Cl)cc1N1CCN(S(=O)(=O)N2CCCCC2)CC1	-3.0	0.9	0.664	5.8	3.0	i	-5.5
COc1ccc(Cl)cc1C(=O)NNC(=O)c1cccc([N+](=O)[O-])c1	-1.5	.	.	-4.7	1.8	i	156.1*
CCN(CC(=O)Nc1ccccc1C(F)(F)F)C(=O)c1ccccc1OCc1ccc(F)cc1	.	1.7	0.679	-1.2	0.5	i	.
CCN(CC)CCNS(=O)(=O)c1ccc(OC)c(Br)c1	-8.5	2.7	0.726	0.5	-2.6	.	0.8
NNC(=O)C(=O)Nc1ccc(O)cc1	.	1.7	0.664	-0.9	1.6	i	1.3
NC(=O)c1nsc(C(=O)N(Cc2ccco2)C(C(=O)NC2CCCC2)c2ccc(O)cc2)c1N (centres undefined)	.	-33.4	0.661	3.9	1.7	i	.
O=[N+]([O-])c1ccc(S(=O)(=O)NCC(c2cccnc2)N2CCOCC2)cc1 (centres undefined)	-25.6	0.9	0.696	3.8	1.1	i	2.4
CN(C)c1cccc2c1c(NC(=O)c1ccc(Cl)cc1)nn2C	28.6	7.1	0.691	1.9	0.8	i	2.8
Cc1c(N2C(=O)/C(=C/C3CC=CCC3)SC2=S)c(=O)n(-c2ccccc2)n1C (centres undefined)	98.5*	4.9	0.629	10.9	3.2	i	-3.1
COc1ccc(C(=O)NCc2ccc(N3CCN(C(=O)OC(C)(C)C)CC3)cc2)cc1	-3.3	2.9	0.655	-0.3	-3.5	.	1.9
Cn1cccc1/C=C(\C#N)C(N)=S	8.7	11.4	0.672	15.8	-1.8	i	-1.1
CCc1nnc2c(NCCc3ccc(OC)c(OC)c3)nc3ccccc3n12	.	-0.4	0.707	-8.7	1.9	i	.
O=C(NCc1ccccc1)c1n[nH]nc1-c1ccccc1O	11.3	0.9	0.656	0.5	0.0	.	5.1
CCOC(=O)c1nn(-c2ccc(F)cc2)c(=O)c(C#N)c1C	-8.1	-22.8	0.633	9.2	-7.0	i	2.0
CCn1c(C)c(C)c2cc(C(=O)Nc3cccc(Cl)c3)ccc21	5.0	-4.1	0.774	13.2	2.9	.	-1.2
COc1ccc(-n2c(-c3cnccn3)n[nH]c2=S)cc1	90.3*	5.9	0.67	-1.1	2.7	.	5.8
CN(c1ccc(S(=O)(=O)N2CCOCC2)cn1)C1CCCCC1	-2.5	3.7	0.749	0.3	0.7	.	-1.7
CC1=CC(C)(C)N(C(=O)CN2C(=O)c3ccccc3C2=O)c2ccc(C)cc21	3.0	2.3	0.679	7.0	1.4	.	-4.7
COc1cc(C#Cc2ccc3cc(CCO)oc(=O)c3c2)cc(OC)c1	9.9	3.0	0.707	25.6	-3.5	i	0.0
O=[N+]([O-])c1ccccc1OCCOCCOc1cccc2cccnc12	2.8	-0.9	0.722	0.7	0.2	i	2.0
CCc1nnc(NC(=O)CN2C(=O)c3ccccc3S2(=O)=O)s1	-17.0	2.4	0.584	-1.9	2.2	.	-1.6

Two entries from above, reformatted.
Compound: Cn1c(=O)n(C)c2cc(N3CCCCC3)c(NC(=O)c3cccc(Cl)c3)cc21
  ALR inh: 2.2	UCH37 inh: 4.4	Ecoli growth: 0.669	B2AR ag: 19.4	HNF4A DNA FP: 7.7	FGF22 binding: i	LANA-H2A inh: 3.8
Compound: COc1ccc(OC)c(N(CC(=O)N2CCCC2)S(=O)(=O)c2ccc(C)cc2)c1
  ALR inh: 1.9	UCH37 inh: 3.1	Ecoli growth: 0.678	B2AR ag: 2.3	HNF4A DNA FP: 2.6	FGF22 binding: i	LANA-H2A inh: -3.6

(continued)
mol	ALR inh	UCH37 inh	Ecoli growth	B2AR ag	HNF4A DNA FP	FGF22 binding	LANA-H2A inh
COc1ccccc1C(O)(C(=O)NNc1cccc(C)c1)c1ccccc1OC	95.4*	1.6	0.689	5.9	0.5	i	0.5
COc1ccc(-n2nnnc2CNC(=O)C2CC(=O)N(c3ccc(Cl)cc3)C2)cc1 (centres undefined)	-3.6	-0.1	0.625	-0.1	3.0	i	5.5
O=C(c1cc(COc2ccccc2)on1)N1CCCC(CN2CCOCC2)C1 (centres undefined)	-2.0	3.1	0.671	-14.8	-1.5	i	4.2
O=C(CCCOc1ccc(Cl)cc1Cl)NCCCO	.	0.8	0.763	-1.6	-2.4	.	7.1
CCCCc1nnc(NC(=O)CN2C(=O)c3ccccc3C2=O)s1	3.1	-1.2	0.693	17.7	-0.1	i	-0.8
CC(=O)Nc1ccc(NC(=O)COC(=O)C2CCC(C(C)(C)C)CC2)cc1 (centres undefined)	-2.9	7.1	0.688	-3.3	0.6	i	2.0
CO/N=C(\N)c1ccc([N+](=O)[O-])cc1	-1.1	.	.	10.8	0.7	i	0.8
COc1ccc2c(C)c(C)c(=O)oc2c1OC	.	-48.7	0.719	-1.1	2.4	i	3.1
CC(=O)c1cccc(NC(=O)CN2CCc3cc4c(cc3C2C)OCCCO4)c1 (centres undefined)	-0.8	-2.4	0.669	26.9	-4.9	i	-2.5
CCN(CC)C(=O)C12CC3CC(CC(Cl)(C3)C1)C2	-3.9	0.9	0.707	-5.4	-0.9	i	1.8
COc1ccccc1CNC(=O)c1cc2sccc2n1C	-5.5	1.7	0.712	0.1	0.0	i	-1.2
O=C(NC1CCCCC1)C(c1cc2c(cc1[N+](=O)[O-])OCO2)N1CCCCC1 (centres undefined)	-4.8	3.5	0.634	.	.	.	-2.6
Cc1ccc(C(=O)OCC(=O)c2c(N)n(C)c(=O)n(C)c2=O)cc1S(=O)(=O)N1CCCCC1	-24.4	2.2	0.711	-2.0	-3.7	.	-1.3
O=C(N/N=C/c1coc2ccc(Cl)cc2c1=O)c1ccncc1	-3.8	.	.	11.8	3.1	i	4.3
CCOc1ccc(-c2cc(C(=O)NCCCN3CCN(CC)CC3)c3ccccc3n2)cc1	-2.2	-290.0	0.709	3.3	3.5	.	0.4
Cc1cc(C(=O)NCC(C)C)c2ccccc2n1	-4.6	3.6	0.675	0.9	3.5	.	1.2
CCOC(=O)c1ccccc1NC(=O)CN(c1ccccc1OC)S(C)(=O)=O	-6.8	0.5	0.685	2.7	4.8	.	-0.4
Cc1cccc(NC(=O)Cn2ccn(-c3ccc4c(c3)OCCO4)c(=O)c2=O)c1	9.8	3.1	0.664	3.0	1.2	i	9.6
CCOc1ccc(NC(=O)CCC(=O)NNC(=O)Nc2ccc(Cl)cc2)cc1	-4.2	4.0	0.686	-6.7	2.9	i	-0.4
C/C=C/c1ccc(OCC(=O)OCC(=O)Nc2c(C)nn(-c3ccccc3)c2C)c(OC)c1	2.0	5.2	0.665	-11.0	2.2	i	-1.0
COc1cccc2c(=O)cc(C)n(CC(=O)Nc3ccccc3C)c12	-0.1	-33.1	0.674	-3.6	2.5	.	-1.9
CN(C)c1nnnn1-c1ccc(OC(F)(F)F)cc1	-11.0	0.9	0.672	13.3	1.9	i	8.6
Cc1ccc2cc(C)c3nnc(SCC(=O)NCc4ccco4)n3c2c1	14.4	-2.2	0.665	14.4	-5.7	i	-10.1
CC1CN(c2nc3c(c(=O)n(C)c(=O)n3C)n2Cc2c(F)cccc2Cl)CC(C)O1 (centres undefined)	1.8	2.4	0.73	-9.7	1.6	.	-8.3
CC(=O)c1ccc(NC(=O)c2onc(C)c2Cl)cc1	-0.6	2.6	0.643	13.4	3.1	i	8.0
COc1ccc(C(=O)NCCN2CCCC2)cc1	-4.0	-0.3	0.683	-4.6	-0.1	i	1.7
Cc1ccc(CSc2ccc(S(=O)(=O)N3CCOCC3)cn2)cc1	0.1	2.8	0.686	2.8	-0.1	i	6.3
CC(C(=O)Nc1ncc2c(n1)CC(C)(C)CC2=O)N1C(=O)c2ccccc2C1=O (centres undefined)	-11.0	4.6	0.693	-3.9	-0.7	.	-4.4
COc1ccc([C@@H]2C(C#N)=C(N)S[C@@H](c3ccccc3)[C@@H]2[N+](=O)[O-])cc1	-0.3	0.4	0.728	9.5	-0.8	.	3.6
COC(=O)CCC(=O)OC1(C)C(=O)C2=CN(Cc3ccc4c(c3)OCO4)C(c3ccc(OC)cc3)=CC2=C(Br)C1=O (centres undefined)	-36.8	.	.	11.4	7.5	.	1.8

Complete entries, looked up by structure. Values in the order: ALR inh	UCH37 inh	Ecoli growth	B2AR ag	HNF4A DNA FP	FGF22 binding	LANA-H2A inh
O=C(NC1CCCCC1)C(c1cc2c(cc1[N+](=O)[O-])OCO2)N1CCCCC1 (centres undefined) is listed as -4.8	3.5	0.634	.	.	.	-2.6
COc1ccc(C(=O)NCCN2CCCC2)cc1 is listed as -4.0	-0.3	0.683	-4.6	-0.1	i	1.7
Cc1ccc(CSc2ccc(S(=O)(=O)N3CCOCC3)cn2)cc1 is listed as 0.1	2.8	0.686	2.8	-0.1	i	6.3
CCOC(=O)c1ccccc1NC(=O)CN(c1ccccc1OC)S(C)(=O)=O is listed as -6.8	0.5	0.685	2.7	4.8	.	-0.4
CCn1c(C)c(C)c2cc(C(=O)Nc3cccc(Cl)c3)ccc21 is listed as 5.0	-4.1	0.774	13.2	2.9	.	-1.2

More results follow:
mol	ALR inh	UCH37 inh	Ecoli growth	B2AR ag	HNF4A DNA FP	FGF22 binding	LANA-H2A inh
COc1ccc(C(O)P(=O)(OC2CCCCC2)c2ccc(N(C)C)cc2)cc1OC (centres undefined)	-0.2	-0.5	0.675	-1.2	-0.8	.	-1.2
CCOc1ccc(/C=N/NC(=O)c2cc(-c3ccccc3)nc3ccccc23)cc1O	44.1	.	.	-4.6	3.6	i	3.8
CCn1c(SC(C)C(=O)N2CCOCC2)nc2sc(C)c(C)c2c1=O (centres undefined)	1.3	0.9	0.64	-2.9	1.5	i	-5.6
CSCCC(NC(=O)c1cccc(C)c1)C(=O)NNC(=O)c1cccs1 (centres undefined)	0.9	0.9	0.711	-0.5	3.7	i	-0.9
